# Sa RN4220 lethal – growth inhibition of S. aureus RN4220, primary screen, OD600. 0.33% of 330,000 active. inhibition, % (no concentration beside the values). 16 h;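 active means z-score of -3 or lower and OD600 up to 0.18 on both plates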;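 further: plate controls were untreated cells for no effect and reference antibiotic for full effect; stock transfer was 100 nL into about 80 µL; one replicate is shown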
# Sa ugtP lethal – growth inhibition of ugtP-null S. aureus, primary screen, RN4220 ugtP deletion, OD600; AID 1259309, 2017; growth inhibition, % (no concentration beside the values); 16 h; some inactives read as strong as hits; 0.54% of 330,000 active;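 active means z-score under -3 and OD600 up to 0.15 on both plates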;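 further: plate controls were untreated wells for no effect and antibiotic for full effect; wells of about 80 µL received 100 nL stock; the first replicate is given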
# Bead autofluor – compound fluorescence in toxin protease inhibitor counterscreen; compound autofluorescence counterscreen, microsphere flow cytometry; stronger effect = higher value; fluorescence intensity (no concentration beside the values); 3.1% of 360,000 active;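 active means at least 3 SD above the mean of all compounds, about 16000 in these data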;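 further: 100 nL of 1 mM stock went into each well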
# Mtb hypoxia rep – PubChem AID 1159583; M. tuberculosis hypoxia-regulated fluorescent reporter, fluorescence; fluorescence inhibition, % (no concentration beside the values); 0.1% of 300,000 active;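 active means 35 to 45% if threefold the growth effect, above 45% if 1.5-fold the growth effect; inactive means the rest, general growth blockers included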;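 further: wells of about 50 µL received 100 nL stock; 0% = vehicle wells and 100% = reference inhibitor wells; whole bacteria with a GFP reporter of the hypoxia response; strong numbers were not always called active; many hits fall short of the cut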
# PrP 5UTR inh – inhibition of PrP 5' UTR reporter expression; cell-based PrP 5' UTR mRNA reporter, plate reader; inhibition, % (concentration not given with the values); 0.35% of 340,000 active; AID 488862, 2010;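 active means every replicate at 50% or more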;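 further: 0 = median of the neutral control wells; tested in H4 reporter cells; numbers are from one replicate; inactives centre near -14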
# BJeLR lethal – MLPCN primary cell-based screen for lethality selective to Ras in HRASV12 cells | 0.17% of 300,000 active | BJeLR (HRASV12) viability, CellTiter-Glo ATP luminescence, 48 h; reference of the scale not given here | inhibition, % (no concentration beside the values);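 active means replicate mean above 50%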;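 further: 50 nL library stock added to about 25 µL; numbers are from one replicate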
# Mtb hypoxia rep growth – also measured in Mtb hypoxia rep; calls as there; growth inhibition, %; measured here: M. tuberculosis growth (absorbance);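 0% = vehicle and 100% = reference antibiotic; read after six days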
# Numbers without * were called inactive; x = not tested or not shown.
SMILES,Sa RN4220 lethal,Sa ugtP lethal,Bead autofluor,Mtb hypoxia rep,Mtb hypoxia rep growth,PrP 5UTR inh,BJeLR lethal
COc1ccccc1NC(=O)CSc1nnc(Cn2c(=O)sc3ccccc32)n1C,-0.8,-1,4350,x,x,-2,-7
COc1ccc(C(=O)c2ccc(OC)c(OC)c2OC)cc1,4.0,7,3449,5,2,-30,x
O=S(=O)(Cc1ccc(Cl)cc1)N1CCN(Cc2ccc3c(c2)OCO3)CC1,4.8,8,4792,8,0,4,2
Cn1nnnc1Sc1ncnc2scc(-c3ccccc3)c12,1.4,2,4670,4,8,7,-20
Cc1ccc(NC(=O)CSc2nnc(C)c(=O)n2N)cc1,1.1,2,4535,-1,10,-13,-5
COC(=O)c1cn[nH]c1NC(=S)Nc1ccc(Cl)c(Cl)c1,0.5,-26,9891,4,8,-19,-17
CCn1cc(C(=O)O)c(=O)c2cc(F)c(N3CCN(S(=O)(=O)c4ccc5c(c4)OCCO5)CC3)cc21,100*,100*,4746,23,12,17,-4
O=C(O)c1cccc(Cn2c(Cl)c(C=NNC(=O)c3cc4ccccc4cc3O)sc2=O)c1,11,9,x,22,13,x,x
COCCn1c(=S)[nH]c2cc(C(=O)N3CCc4ccccc4C3)ccc2c1=O,3.2,3,5175,11,7,0,2
Cc1cc(C)n(CC(=O)N/N=C/c2c[nH]c3ccccc23)n1,x,x,6265,x,x,-10,-11
CCCOc1cccc(C(=O)N(Cc2ccco2)C2CCS(=O)(=O)C2)c1 (centres undefined),14,4,2572,-5,11,-8,3
COc1ccc(NC(=O)NCc2ccccn2)c(OC)c1,0.5,2,5881,-6,-1,-14,-5
CCOC(=O)C1CCCN(C(=O)CNC(=O)c2nn(-c3ccc(OC)c(Cl)c3)c(=O)c3ccccc23)C1 (centres undefined),-1.9,7,3545,5,9,-18,-15
C=COCCNC(=O)Nc1ccc(Cl)c(Cl)c1,0.5,-2,11097,4,0,-5,9
COc1ccc(NC(=O)CCCNC(=O)c2ccc(Cl)cc2)cc1OC,2.4,7,3197,6,7,-5,2
O=C(c1ccc(N2CCCCC2)c([N+](=O)[O-])c1)N1CCOCC1,5.9,8,16276*,6,7,-4,-5
CC12CCC(=O)N1C(C(=O)Nc1ccc(SC(F)F)cc1)CS2 (centres undefined),4.1,7,5923,10,-4,-18,4
Cc1cc(=O)[nH]c(N/N=C/c2ccc(O)c(O)c2)n1,x,x,3339,x,x,-22,11
Cc1cc(Cl)c(S(=O)(=O)N2CCCC2)cc1OCC(=O)NC1CCCCC1,-0.6,1,20066*,6,16,-14,-5
Cn1c(CN2CCCCC2)c(C#N)c2ccccc21,1.7,13,10674,9,7,-45,-3
Cc1ccccc1OCC(=O)NCCS(=O)(=O)N1CCN(c2ccc(F)cc2)CC1,1.4,4,x,1,-1,-15,7
C/C(=N\NC(=O)c1ccc(NS(=O)(=O)c2cccs2)cc1)c1ccncc1,x,x,4058,x,x,-22,1
CS(=O)(=O)n1nc(C(=O)N2CCOCC2)nc1N,10,9,2460,0,-1,-1,-1
CC(=O)C(=Cc1ccc(O)cc1)C(C)=O,2.3,1,4593,11,7,-7,-2
CCOC(=O)C(O)(c1ccc(N(CC)C(=O)COc2ccccc2)cc1)C(F)(F)F (centres undefined),8.9,-11,2489,-1,13,-14,5
# (next part)
SMILES,Sa RN4220 lethal,Sa ugtP lethal,Bead autofluor,Mtb hypoxia rep,Mtb hypoxia rep growth,PrP 5UTR inh,BJeLR lethal
CC(=O)NCCCc1nc2ccccc2n1Cc1ccc(C)cc1,1.3,1,4100,x,x,-6,6
COc1cc(C(=O)NC2CCCc3c2cnn3-c2ccccc2F)cc(OC)c1OC (centres undefined),-0.7,6,4412,6,6,1,10
NC(=O)c1ccsc1NC(=O)C1CCCN1S(=O)(=O)c1ccc(Cl)cc1 (centres undefined),2.3,0,20384*,0,4,-27,2
Cc1cc(C)cc(NC(=O)CC2NCCNC2=O)c1 (centres undefined),0.9,7,16440*,17,-2,-18,-2
CCOC(=O)c1c(N)nn(C(=O)c2ccccc2)c1-c1ccccc1,3.9,5,2011,-3,13,-11,2
Cc1nn(Cc2ccc([N+](=O)[O-])cc2)c(=O)n1-c1ccc(Cl)cc1,9.2,2,4182,12,1,0,-21
CCOC(=O)N1CCN(C(=O)CCN2C(=O)COc3ccc(C)cc32)CC1,3.7,8,4269,6,-12,-7,-5
O=c1c(Cc2c(F)cccc2Cl)c(O)ccn1CCCn1ccnc1,1.1,1,3908,13,7,2,5
Cc1c(-c2ccccn2)c(=O)[nH]n1-c1ccc(F)cc1,0.3,3,4759,3,7,-16,2
CCOP(=O)(OCC)c1nc(-c2cccc3ccccc23)oc1NCCc1ccc(OC)cc1,-8.5,-25,8563,2,0,-7,-23
O=S1(=O)N=C(N2CCOCC2)c2ccccc21,4.7,4,2231,x,x,-4,3
COCCC1CCCCN1Cc1cn(-c2ccccc2)nc1-c1ccc2c(c1)OCO2 (centres undefined),-0.4,3,5543,8,8,-16,5
C=CCNC(=O)NC(=S)c1ccccc1,8.2,15,11129,16,9,-3,-7
Cc1ccc(CCNC(=O)CN2C(=O)COc3ccc(S(=O)(=O)N4CCC(C)CC4)cc32)cc1,3.1,1,5167,10,-2,18,-4
O=C(c1cc2cc([N+](=O)[O-])ccc2oc1=O)N1CCOCC1,8.4,13,2529,13,9,-9,7
COc1ccc(CCN2C(=O)CS/C2=N\NC(=O)c2ccc(C(C)(C)C)cc2)cc1OC,x,x,1953,x,x,-2,7
COc1ccccc1CNC(=O)c1ccc(NC(=O)CC2SC(N3CCCC3)=NC2=O)cc1 (centres undefined),3.5,1,8636,-2,7,-23,x
CCOc1ccc(NC(=O)c2ccccc2NC(=O)CN2CCCCCC2)cc1,1.9,-2,5906,3,9,-12,x
COc1cc(/C=C/C(=O)N(C)c2ccccc2C(=O)O)cc(OC)c1OC,5.3,2,3872,15,11,-19,0
COc1cccc(NC(=O)c2oc3ccccc3c2NC(=O)c2ccc3c(c2)OCO3)c1,-3.6,-27,8647,-2,-7,-31,3
O=C(OCC(=O)N(CCc1ccccc1)Cc1ccccc1)c1cccc(S(=O)(=O)N2CCOCC2)c1,-0.5,-1,3806,-10,9,-8,x
COc1ccccc1NC(=O)NNC(=O)C(C)Oc1ccc2ccccc2c1 (centres undefined),4.3,3,5816,7,-13,-17,5
COc1ccccc1N1CCN(c2nnc(-c3ccc(F)cc3)c3ccccc23)CC1,-8.1,1,4681,x,x,-8,-5
Cc1ccc(C(=O)NN=CC2CC=CCC2)cc1[N+](=O)[O-] (centres undefined),2.7,3,x,8,-8,x,x
Cc1ccc(NS(=O)(=O)c2ccc(C(=O)NNC(=O)c3ccccc3O)cc2)cc1,6.5,-3,7002,7,-5,-9,-8

# A second format for 14 compounds above:
# Every second line gives: Sa RN4220 lethal, Sa ugtP lethal, Bead autofluor, Mtb hypoxia rep, Mtb hypoxia rep growth, PrP 5UTR inh, BJeLR lethal
> COCCC1CCCCN1Cc1cn(-c2ccccc2)nc1-c1ccc2c(c1)OCO2 (centres undefined)
    -0.4, 3, 5543, 8, 8, -16, 5
> C=CCNC(=O)NC(=S)c1ccccc1
    8.2, 15, 11129, 16, 9, -3, -7
> Cc1ccc(CCNC(=O)CN2C(=O)COc3ccc(S(=O)(=O)N4CCC(C)CC4)cc32)cc1
    3.1, 1, 5167, 10, -2, 18, -4
> O=C(c1cc2cc([N+](=O)[O-])ccc2oc1=O)N1CCOCC1
    8.4, 13, 2529, 13, 9, -9, 7
> COc1ccc(CCN2C(=O)CS/C2=N\NC(=O)c2ccc(C(C)(C)C)cc2)cc1OC
    x, x, 1953, x, x, -2, 7
> COc1ccccc1CNC(=O)c1ccc(NC(=O)CC2SC(N3CCCC3)=NC2=O)cc1 (centres undefined)
    3.5, 1, 8636, -2, 7, -23, x
> CCOc1ccc(NC(=O)c2ccccc2NC(=O)CN2CCCCCC2)cc1
    1.9, -2, 5906, 3, 9, -12, x
> COc1cc(/C=C/C(=O)N(C)c2ccccc2C(=O)O)cc(OC)c1OC
    5.3, 2, 3872, 15, 11, -19, 0
> COc1cccc(NC(=O)c2oc3ccccc3c2NC(=O)c2ccc3c(c2)OCO3)c1
    -3.6, -27, 8647, -2, -7, -31, 3
> O=C(OCC(=O)N(CCc1ccccc1)Cc1ccccc1)c1cccc(S(=O)(=O)N2CCOCC2)c1
    -0.5, -1, 3806, -10, 9, -8, x
> COc1ccccc1NC(=O)NNC(=O)C(C)Oc1ccc2ccccc2c1 (centres undefined)
    4.3, 3, 5816, 7, -13, -17, 5
> COc1ccccc1N1CCN(c2nnc(-c3ccc(F)cc3)c3ccccc23)CC1
    -8.1, 1, 4681, x, x, -8, -5
> Cc1ccc(C(=O)NN=CC2CC=CCC2)cc1[N+](=O)[O-] (centres undefined)
    2.7, 3, x, 8, -8, x, x
> Cc1ccc(NS(=O)(=O)c2ccc(C(=O)NNC(=O)c3ccccc3O)cc2)cc1
    6.5, -3, 7002, 7, -5, -9, -8

# 3 of the compounds above, with two lines to a compound:
# Values in the order: Sa RN4220 lethal, Sa ugtP lethal, Bead autofluor, Mtb hypoxia rep, Mtb hypoxia rep growth, PrP 5UTR inh, BJeLR lethal
> COc1cc(C(=O)NC2CCCc3c2cnn3-c2ccccc2F)cc(OC)c1OC (centres undefined)
→ -0.7, 6, 4412, 6, 6, 1, 10
> NC(=O)c1ccsc1NC(=O)C1CCCN1S(=O)(=O)c1ccc(Cl)cc1 (centres undefined)
→ 2.3, 0, 20384*, 0, 4, -27, 2
> Cc1cc(C)cc(NC(=O)CC2NCCNC2=O)c1 (centres undefined)
→ 0.9, 7, 16440*, 17, -2, -18, -2

# (next part)
SMILES,Sa RN4220 lethal,Sa ugtP lethal,Bead autofluor,Mtb hypoxia rep,Mtb hypoxia rep growth,PrP 5UTR inh,BJeLR lethal
Cc1cccc(C2NC(=O)c3c(sc(C)c3C)N2)c1O (centres undefined),2.2,0,7982,7,8,-8,-2
COc1ccc2[nH]c3c(=O)n(CCCCC(=O)NCCC(C)C)c(=S)[nH]c3c2c1,2.4,0,4152,-6,2,-22,-12
Cn1cccc1/C=C1\C(=O)NC(=O)N(CCC2=CCCCC2)C1=O,2.8,9,2045,5,10,-8,6
O=C1CCC(=O)N1c1ccc(S(=O)(=O)N2CCCC2)cc1,-1.0,-1,4223,1,5,-31,2
Cc1cc([N+](=O)[O-])ccc1NC(=O)Nc1ccc(F)cc1F,54,57,4683,2,12,-14,6
Cc1ccc(N2CC(C(=O)N3CCOCC3)CC2=O)cc1Cl (centres undefined),2.3,10,3006,-6,-12,0,0
CCOC(=O)c1c(C)[nH]c(C)c1C(=O)COC(=O)c1ccc(S(=O)(=O)N(CC)CC)cc1,-1.2,5,16763*,7,9,-12,-15
Cc1c(C(C)C)c(=O)n(-c2ccc(S(=O)(=O)NC3CCCCC3)cc2)n1C,-2.2,-9,4586,-3,-20,-22,8
COCCCNS(=O)(=O)c1ccc(OC)c(Cl)c1Cl,-0.8,5,5825,13,1,-42,10
Cc1ccc(OCc2nnc(SCc3ccc(C#N)cc3)n2-c2ccc(C)cc2)cc1,1.4,-16,8385,1,-6,2,-2
